Screening results (PubChem BioAssay)
Vaccinia Venus: vaccinia inhibition (Venus reporter); Vaccinia virus Venus reporter expression, fluorescence; Potency, µM (doses to about 36.5 µM), inactives show top-dose activity change, negative = inhibition, hits mostly inhibitors; hit rate 0.46% among 330,000; active means well fitted inhibition curve with a large enough effect; inconclusive means small, poorly fitted or top-dose-only effect; inactive means no such curve, though single readings can be large or run the other way; tested in A549 cells; note: nearly all actives have a fitted effect of over 30% in size; inactives centre near -10
VACV mCherry inh: vaccinia inhibition (mCherry reporter). AID 720579. hit rate 0.63% among 310,000. Vaccinia virus mCherry reporter infection, fluorescence; about a quarter of the inactives have no number. Potency, µM (titrated, usually from 36.5 µM), without a hit: top-dose activity change, negative = inhibition, actives largely listed as inhibitors; active = well fitted inhibition curve with a large enough effect; inconclusive = small, poorly fitted or top-dose-only effect; inactive = no such curve, though single readings can be large or run the other way; tested in A549 cells; note: nearly all actives have a fitted effect of over 35% in size; inactives centre near -10
* hit, by the source's call; i = inactive; u = inconclusive; x = no result given; & = joins results of further samples; [ ] = remark or other dose. % is set by controls: 0 for no effect and ±100 for the full control effect; potency is the fitted concentration of half-maximal effect.

Every second line gives: Vaccinia Venus, VACV mCherry inh
> CCOC(=O)[C@]12Cc3cc(Cl)ccc3[C@H]1N(C1CCCCC1)C(=O)c1ccccc12
  u, u
> CNC(=O)c1cc(-c2ccc(Cl)cc2)n(-c2ccccc2)n1
  -6%, i
> CCC1SC(CC)C(=O)N(CC(=O)NCCc2ccccc2)C1=O (stereo not given)
  14%, 3%
> N#C/C(=C\c1cccc([N+](=O)[O-])c1)c1ccccn1
  -14%, -16%
> CCCCn1c(N)c(N(CC(C)C)C(=O)COC(=O)c2ccccc2NCCO)c(=O)[nH]c1=O
  3%, i
> CCCS(=O)(=O)NC(=O)C1(C)CCN(C(=O)c2ccc(C(F)(F)F)cc2)C1 (stereo not given)
  -3%, 4%
> COc1ccc(OC(=O)C(C)N2C(=O)c3ccccc3C2=O)cc1 (stereo not given)
  -2%, -13%
> C=CCNC(=O)C1CCN(c2c([N+](=O)[O-])cc(C(F)(F)F)cc2[N+](=O)[O-])CC1
  -12%, x
> C[C@H]1CN(S(=O)C(C)(C)C)[C@H](CCO)/C1=C\c1ccccc1 (stereo not given in full)
  -14%, -7%
> CCOc1ccc(NC(=O)N2CCN(S(=O)(=O)c3ccc4c(ccn4C)c3)CC2)cc1
  -5%, -12%
> O=C(NCCCO)c1nn(-c2ccc(Cl)cc2)nc1CO
  -2%, 4%
> CSc1ccc(CN2CCCC(CO)(Cc3ccccc3)C2)cc1 (stereo not given)
  -15%, -8%
> O=C(Nc1c2c(nn1-c1ccccc1)CS(=O)(=O)C2)C1CCCC1
  -24%, -2%
> COC(=O)C[C@@H]1C[C@@H]2c3cc(NS(=O)(=O)c4ccc(F)cc4)ccc3O[C@@H]2[C@@H](CO)O1
  -4%, i
> O=C1c2ccccc2-c2cccc(C(=O)N3CCCCCC3)c21
  u, -22%
> Nc1nonc1-n1nnc(C(=O)N/N=C/c2ccc(Cl)cc2Cl)c1CN1CCOCC1
  1%, -7%
> O=C(NCc1ccccn1)c1c(Cl)cccc1Cl
  -8%, x
> O=C(C(=O)N1CCN(c2ccccc2F)CC1)c1cn(CC(=O)N2CCCC2)c2ccccc12
  -20%, -15%
> COc1ccc(NC(C)=O)cc1NC(=O)C1CCN(C(=O)Nc2ccccc2)CC1
  -10%, -14%
> CC(=O)Nc1c(F)c(F)c(F)c(F)c1F
  -10%, -12%
> CC(=O)NC12CC3CC(C1)CC(C(=O)OCC(=O)Nc1c(F)cccc1F)(C3)C2
  -14%, -4%
> Cc1ccc2nc(C)c(C(=O)N/N=C/c3ccco3)cc2c1
  -13%, i
> CCCCn1c(N)c(N(CC(C)C)C(=O)CCCc2nc3ccccc3c(=O)[nH]2)c(=O)[nH]c1=O
  0%, -8%
> COC(=O)c1ccc(NC(=O)C(c2ccccc2)N2Cc3ccccc3C2=O)cc1 (stereo not given)
  -13%, -4%
> CC(Sc1nnc(CN2CCCC2)n1Cc1ccccc1)C(=O)Nc1ccc(F)cc1 (stereo not given)
  -3%, -15%
> Cc1ccc(C(C)C)c(OCC(=O)NN=C2CCCCCCC2)c1
  -25%, u
> COc1cccc(C(C)(O)c2nc(-c3ccc4ccccc4c3)cs2)c1 (stereo not given)
  -7%, i
> Cc1ccc(NC(=O)[C@H](C)NC(=O)C2CCN(C(=O)[C@@H](NC(=O)OC(C)(C)C)C(C)C)CC2)cc1
  u, u
> COc1ccc(NC(=O)[C@@H]2CC=C[C@@H]3CCN(Cc4ccc(Cl)c(Cl)c4)C(=O)[C@@H]32)cc1
  u, -7%&-19%
> CC(=O)N/C(=C/c1ccc2c(c1)OCO2)C(=O)NCCCO
  -10%, x
> O=C1C=C(O)CC(c2ccc(Cl)cc2)C1 (stereo not given)
  -2%, -7%
> Cc1ccccc1NC(=O)Cn1nnc2c(cnn2-c2ccc(F)cc2)c1=O
  -13%, -12%
> O=c1oc2ccccc2c(Nc2cc3ccccc3cc2O)c1[N+](=O)[O-]
  -20%, u
> COc1nc(-c2ccc(Cl)cc2Cl)nc2ccccc12
  -9%, i
> Cc1cc2oc(=O)cc(CN(C)Cc3ccccc3)c2cc1C(C)C
  0%, -22%
> CC(NC(=O)c1ccccc1F)C1CC1 (stereo not given)
  -4%, -7%
> CCC1Oc2ccc(C)cc2N(CC(=O)N2CCN(c3ccc(F)cc3)CC2)C1=O (stereo not given)
  -27%, -3%
> CC1CCCCC1NC(=O)CSc1nnc(CC(=O)Nc2ccccc2F)n1C (stereo not given)
  -4%, -30%
> O=C(COC(=O)Cc1ccc(Cl)cc1Cl)Nc1ccccc1OC(F)F
  -16%, -14%
> Cc1cccc2sc(NC(=O)C3CCN(C(=O)c4ccco4)CC3)nc12
  -18%, 0%
> CCN(CC)S(=O)(=O)c1ccc(C(=O)NCCc2cc3c(OC)ccc(OC)c3[nH]c2=O)cc1
  -8%, -16%
> COc1ccc(S(=O)(=O)N(C)C)cc1NS(=O)(=O)c1ccc(F)c(F)c1F
  u, u
> Cc1nc(N)nc(Cl)c1CCC1OCCO1
  -10%, -21%
> CC(C)(C)N(NC(=O)Nc1ccc(Cl)c(Cl)c1)C(=O)c1ccccc1
  13µM*, -25%[1.46 µM]
> O=C(C[n+]1cccc(CNC(=O)c2ccc(OC(F)F)cc2)c1)Nc1cccc(C(F)(F)F)c1
  -21%, -23%
> O=C(OCc1cccc([N+](=O)[O-])c1)c1cccnc1
  7%, -6%
> CCN(CC)S(=O)(=O)c1cc(NC(=O)Cn2ncc(Cl)c(Cl)c2=O)ccc1C
  u, u
> Fc1cccc(CSc2nc3ncc(Cl)cc3[nH]2)c1
  -13%, -3%
> CCC1(C)CC(CCN(Cc2ccco2)C(C)=O)(c2ccccc2)CCO1 (stereo not given)
  -17%, -3%
> O=C(NCc1cccnc1)C1CC2c3ccccc3C1c1ccccc12 (stereo not given)
  -4%, -20%
> Fc1ccc(-c2ccnc3nc(-n4cccc4)nn23)cc1
  -11%, -14%
> CCN(CC)S(=O)(=O)c1ccc(N2C(=O)Nc3ccccc3N2O)cc1
  -5%, i
> CCCOc1ccc(N/C=C/C(=O)C(C)(C)C)cc1
  -16%, -6%
> CCCCCC/C=C\CCCCCCCc1cccc(O)c1C(=O)O
  -12%, i
> Cc1cc(=O)n(C)c(=O)n1CCCNc1ccccc1
  -11%, -7%
> COc1ccc(S(=O)(=O)c2c(Nc3c(C)cccc3C)sc(C(=O)c3ccc(F)cc3)c2N)cc1
  -29%, -28%
> COC1=C(Nc2ccc(C)cc2)C(=O)c2ccccc2C1=O
  u, u
> COc1ccccc1NC(=O)C1=C(C)NC(SCC(=O)c2ccccc2)=C(C#N)C1c1ccco1 (stereo not given)
  2%, -21%
> CCOC(=O)C(C(=O)Nc1cccc(C)c1)C1CCCCC1 (stereo not given)
  -15%, i
> CCN(C(=O)c1cc2c(s1)-c1ccccc1OC2)c1cccc(C(F)(F)F)c1
  -8%, -5%

Continuation.
Every second line gives: Vaccinia Venus, VACV mCherry inh
> O=C(Nc1ccc(OC(F)(F)F)cc1)C1CCN(S(=O)(=O)c2cccs2)CC1
  u, u
> COc1cc(/C=N\n2cnnc2)ccc1OCC(=O)Nc1ccc(C)cc1
  -15%, i
> C=CCOc1cccc(/C=N/NC(=O)CN(c2cc(Cl)ccc2OC)S(=O)(=O)c2ccc(C)c([N+](=O)[O-])c2)c1
  -10%, i
> Cc1nnc(NC(=O)CCC(=O)N2CCN(S(=O)(=O)c3cc([N+](=O)[O-])ccc3C)CC2)s1
  -12%, -4%
> C[C@H](N=C1NS(=O)(=O)c2ccccc21)C(=O)OCc1cc([N+](=O)[O-])cc2c1OCOC2
  3%, i
> COc1ccc(CCNC(=O)Cn2cc(S(=O)(=O)Cc3cccc(Cl)c3)c3ccccc32)cc1OC
  -6%, -16%
> CCCCCCOc1ccc(N2C(=O)CC(N3CCN(C(=O)c4ccco4)CC3)C2=O)cc1 (stereo not given)
  -18%, -10%[1.46 µM]
> COC(=O)N/N=C(\C)c1ccc(C)c([N+](=O)[O-])c1
  -14%, i
> COc1ccc(S(=O)(=O)N2CCCCC2)cc1N(C)S(=O)(=O)c1ccccc1
  -19%, -2%
> C/C(=N\NC(=O)c1nc2ccccn2c1C)c1ccco1
  -12%, i
> CCOC(=O)C1=C(C)N(CCCC(=O)O)C(=O)NC1c1ccc(Cl)cc1Cl (stereo not given)
  -11%, i
> CCCCCCCCn1c2c(c(=N)c3ccccc31)CCC2
  u, u
> CC(C)(C)c1ccc(/C=C2\SC(=O)N(CCNC(=O)c3cccc(S(=O)(=O)N4CCOCC4)c3)C2=O)cc1
  -28%, u
> Cc1cc(C)cc(OCC(=O)Nc2ccc(S(=O)(=O)Nc3onc(C)c3C)cc2)c1
  -4%, 2%
> C=CCN1C(=O)c2ccccc2NC1c1ccc(Br)s1 (stereo not given)
  -3%, u
> CC(Oc1ccccc1Cl)c1nnc(N)s1 (stereo not given)
  -2%, -14%
> CCOCCCNC(=O)c1oc2ccc(S(=O)(=O)N3CCOCC3)cc2c1C
  2%, 13%
> CCOc1ccc(N(CC(=O)N2CC=C(c3ccccc3)CC2)S(=O)(=O)c2c(C)noc2C)cc1
  -11%, 31%[activator]
> Cc1ccc(C(=O)N2c3ccccc3Sc3ccccc32)cc1
  -1%, 1%
> N#Cc1cnn(-c2ncnc3sc4c(c23)CCCC4)c1N
  -8%, -28%
> Cc1ccc(C(=O)NNC(=O)c2cccc(S(=O)(=O)N3CCN(c4ccccc4)CC3)c2)cc1
  -19%, i
> COc1ccc(-n2nnnc2C(c2cccc3ccccc23)N2CCC(n3c(=O)[nH]c4ccccc43)CC2)cc1 (stereo not given)
  -22%, 5%
> CC(OC(=O)CNC(=O)C12CC3CC(CC(C3)C1)C2)C(=O)Nc1ccc(S(N)(=O)=O)cc1 (stereo not given)
  7%, 0%
> Cc1cccc(C(=O)N2CCC(Cc3ccccc3)CC2)c1[N+](=O)[O-]
  -12%, -17%
> COc1ccc2cc(-c3nc(Cl)c4c5c(sc4n3)CCCC5)c(=O)oc2c1
  10%, 16%
> S=C(Nc1cccc(Cl)c1Cl)N1CCCC1
  -7%, -5%
> COc1ccc(N2c3ccccc3CN(Cc3ccccc3)CC2Cc2cc(OC)c(OC)c(OC)c2)cc1 (stereo not given)
  -14%, -16%
> CCOc1ccccc1CNC(=O)c1ccc(-c2nc(CSc3ccc(C)cc3)c(C)o2)cc1
  -9%, -19%
> CCCn1c(=N)n(CC(O)c2ccc(C)cc2)c2ccccc21 (stereo not given)
  -22%, i
> O=C(Nc1ccc(Cl)cc1)N1CCSC1=NCc1ccccc1
  -13%, -16%
> CCOC(=O)c1c(CCl)nc2ccccc2c1-c1ccccc1
  0%, -29%
> CC(C)(C)S(=O)N1Cc2cc(C(=O)NCc3ccc4c(c3)OCO4)nc(-c3cccc(-c4cc5ccccc5o4)c3)c2[C@@H]1CCO (stereo not given in full)
  -7%, i
> COc1ccc(-c2nnc(SC(C)C(=O)NCc3ccc4c(c3)OCO4)n2Cc2ccco2)cc1 (stereo not given)
  -23%, x
> COc1ccc(NC(=O)Nc2ccc3c(c2)C(=O)N([C@H](C)CO)C[C@H](C)[C@@H](CN(C)S(=O)(=O)c2ccc(F)cc2)O3)cc1
  -15%, i
> CC(=O)c1sc(C(C)(C)C)cc1NC(=O)/C=C/C(=O)O
  -5%, i
> CCCc1cc(=O)oc2cc(OCC(=O)NC(Cc3c[nH]c4ccc(O)cc34)C(=O)O)c(Cl)cc12 (stereo not given)
  1%, i
> COc1ccc(NC(=O)Nc2nnc([C@H]3C[C@H](O)[C@@H](CO)O3)s2)cc1
  -10%, i
> CCN(C(=S)Nc1ccccc1F)C1CCCCC1
  -11%, i
> COc1cc(/C=N/NC(=O)c2ccncc2)cc(OC)c1OC
  0%, i
> O=C1NC(=O)N(C2CCCCC2)C(=O)C1C1c2ccccc2C(=O)N1Cc1ccccc1 (stereo not given)
  10%, x
> C(=N\Nc1nc2ccccc2[nH]1)/c1c[nH]c2ccccc12
  -19%, -4%
> O=C(Nc1ccc(Cn2cccn2)cc1)c1ccc(COc2ccccc2Br)cc1
  u, u
> CCOc1ccc(Oc2cc(NC(=O)c3ccco3)cc([N+](=O)[O-])c2)cc1
  -7%, 0%
> COc1ccc(OC)c(NC(=O)c2c(C)oc3ncnc(N4CCOCC4)c23)c1
  -8%, i
> O=C(OCCN1CCCCC1)c1ccccc1Cl
  6%, 6%
> Nn1c(SCC(=O)NC2CCCC2)nnc1-c1ccccc1F
  -17%, x
> Cc1ncc2c(c1CNC(=O)c1ccc3c(c1)OCO3)CCN(C(=O)c1cc3ccccc3n1C)C2
  4%, -7%

Among those listed so far, seven contain a tert-butyl group:
Every second line gives: Vaccinia Venus, VACV mCherry inh
> C[C@H]1CN(S(=O)C(C)(C)C)[C@H](CCO)/C1=C\c1ccccc1 (stereo not given in full)
  -14%, -7%
> Cc1ccc(NC(=O)[C@H](C)NC(=O)C2CCN(C(=O)[C@@H](NC(=O)OC(C)(C)C)C(C)C)CC2)cc1
  u, u
> CC(C)(C)N(NC(=O)Nc1ccc(Cl)c(Cl)c1)C(=O)c1ccccc1
  13µM*, -25%[1.46 µM]
> CCCOc1ccc(N/C=C/C(=O)C(C)(C)C)cc1
  -16%, -6%
> CC(C)(C)c1ccc(/C=C2\SC(=O)N(CCNC(=O)c3cccc(S(=O)(=O)N4CCOCC4)c3)C2=O)cc1
  -28%, u
> CC(C)(C)S(=O)N1Cc2cc(C(=O)NCc3ccc4c(c3)OCO4)nc(-c3cccc(-c4cc5ccccc5o4)c3)c2[C@@H]1CCO (stereo not given in full)
  -7%, i
> CC(=O)c1sc(C(C)(C)C)cc1NC(=O)/C=C/C(=O)O
  -5%, i
